# Sfp inh = Sfp phosphopantetheinyl transferase inhibition | Biochemical Sfp PPTase activity, qHTS | Potency, µM, for inactives: max response, negative = inhibition, hits mostly inhibitors | actives 3.5% (n = 310,000) | AID 1490; active means well fitted inhibition curve with a large enough effect; inconclusive means small, poorly fitted or top-dose-only effect, or another doubt; inactive means no such curve, though single readings can be large or run the other way;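 further: the enzyme is Sfp with the accession as filed and its product quenches rhodamine fluorescence; potency means the concentration at half of the fitted maximal effect; 0% = enzyme reaction without inhibitor and -100% = no enzyme wells; top concentration of the series not given in the record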
#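 Compounds were incubated with enzyme (final 15 nM) for 15 min at room temperature before substrate addition started the reaction. Fluorescence at 525 nm excitation, 598 nm emission was recorded immediately and after 30 minutes.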
# D2 agonist = human D2 receptor agonism in beta-arrestin assay; DiscoveRx PathHunter D2 beta-arrestin, luminescence, 90 min; 100% = 57 uM dopamine signal; AID 624465; actives 0.084% (n = 360,000); activation, % (concentration not given with the values); in the data active = activation above about 40%; inconclusive = about 15% to 40%; inactive = below about 15%; further: compound concentration not given in the record; the text of the record calls up to 30% inactive
#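 Agonist mode: compounds alone added to overnight-plated D2 PathHunter cells for 90 min at 37 C, with 57 uM final dopamine (EC100) defining full response. Beta-arrestin recruitment detected by chemiluminescent reagent, read after 1 h at ambient temperature.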
# PINK1 modulator = modulators of PINK1 expression; PINK1 immunofluorescence, high-content cytometry, 24 h; Potency, µM (series often up to 76.6 µM), for the others: at the highest dose activation (PINK1 increase), usual class: activators; actives 0.2% (n = 410,000); AID 624263; active = well fitted activation curve with a large enough effect; inconclusive = small, poorly fitted or top-dose-only effect; inactive = flat fitted curve, though single readings scatter; cell line not stated here;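 further: potency means the concentration at half of the fitted maximal effect; % of control where 0% means no effect; nearly all actives have a fitted effect of over 65% in size; a mitochondrial uncoupler was the plate control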
#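 Measures PINK1 amount and localization on or inside mitochondria by immunofluorescence. Stable cells get compounds at 5 concentrations for 24 hours before fixation and staining; CCCP controls included.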
# CtBP-E1A inh = inhibitors of CtBP/E1A interaction. AlphaScreen GST-E1A/His-CtBP binding, 1536-well; hits give low values; control for the full effect not named in the record. activity change, % (no concentration beside the values). actives 0.49% (n = 340,000). AID 651724; in the data active means activity change below about -65%; inconclusive means about -30% to -65%; inactive means above about -30%; further: on the % scale 0 is the no-effect control and ±100 the full control effect; compound concentration not given in the record
#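 Steps: dispense buffer (Tris pH 8.0, NaCl 300 mM, TCEP 1 mM, BSA, Tween 20); add 5X protein mix (GST-E1A, His-CtBP, 125 nM each); pin 23 nL compound; 2 h at 37 °C, dark; add 5X beads (50 ug/mL); 1 h; read.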
# D2 potentiator = potentiates the human D2 dopamine receptor allosterically; P14416; DiscoveRx D2 beta-arrestin cells, luminescence, 90 min; 100% = 57 uM dopamine signal; potentiation, % (test concentration not listed); actives 0.23% (n = 360,000); AID 624464; active = potentiation of 50% or more; inconclusive = 30% to 50%; inactive = 30% or less;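 further: compound concentration not given in the record; tested on top of an EC20 dose of dopamine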
#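 PathHunter D2 cells, attached overnight at 37 deg C, received compound in DMSO plus dopamine at EC20 (50 nM final) for 90 min at 37 deg C. Beta-arrestin recruitment was read as luminescence after 1 h with detection reagent at ambient temperature.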
# TRPV1 PAM = enhances activation of the human vanilloid receptor TRPV1. AID 540277. actives 0.02% (n = 320,000). TRPV1-expressing cells, Fluo-8 calcium influx, capsaicin EC20 potentiation; host cell line not named in the record; control for the full effect not named in the record. Q8NER1. potentiation, % at 8.33 µM; active means potentiation above 80%; inconclusive means 30% to 80%; inactive means below 30%; further: 0% is about no effect
#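 Fluo-8 calcium influx in TRPV1-expressing cells, kinetic read (ex 480/em 520 nm). Compound added and read 3 min for agonist activity, followed by capsaicin at EC20 final and 2 min further read for enhancement.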
# Six1-Eya2 blk = inhibitors of human Six1/Eya2 interaction | AlphaScreen GST-Six1/His-Eya2 binding, biochemical; hits give low values; control for the full effect not named in the record | activity change, % (no concentration beside the values) | actives 0.56% (n = 360,000); in the data active = activity change below about -65%; inconclusive = about -30% to -65%; inactive = above about -30%; further: on the % scale 0 is the no-effect control and ±100 the full control effect; compound concentration not given in the record
# Target sequence (O00167 whole entry, looked up): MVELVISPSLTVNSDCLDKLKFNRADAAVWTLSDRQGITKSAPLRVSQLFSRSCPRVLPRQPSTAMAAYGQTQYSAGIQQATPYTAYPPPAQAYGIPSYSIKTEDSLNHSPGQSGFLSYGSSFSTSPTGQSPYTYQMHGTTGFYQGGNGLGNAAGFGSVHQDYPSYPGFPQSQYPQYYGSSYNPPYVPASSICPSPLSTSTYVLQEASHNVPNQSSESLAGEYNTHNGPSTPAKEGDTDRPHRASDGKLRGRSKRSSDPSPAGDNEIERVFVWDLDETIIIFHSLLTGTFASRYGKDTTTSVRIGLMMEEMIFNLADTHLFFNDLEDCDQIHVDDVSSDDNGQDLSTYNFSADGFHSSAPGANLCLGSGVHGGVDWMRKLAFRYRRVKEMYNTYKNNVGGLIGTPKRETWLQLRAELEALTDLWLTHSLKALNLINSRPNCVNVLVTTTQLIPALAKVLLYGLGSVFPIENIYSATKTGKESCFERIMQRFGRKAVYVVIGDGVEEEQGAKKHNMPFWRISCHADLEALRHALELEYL
# Target sequence (Q15475 whole entry, looked up): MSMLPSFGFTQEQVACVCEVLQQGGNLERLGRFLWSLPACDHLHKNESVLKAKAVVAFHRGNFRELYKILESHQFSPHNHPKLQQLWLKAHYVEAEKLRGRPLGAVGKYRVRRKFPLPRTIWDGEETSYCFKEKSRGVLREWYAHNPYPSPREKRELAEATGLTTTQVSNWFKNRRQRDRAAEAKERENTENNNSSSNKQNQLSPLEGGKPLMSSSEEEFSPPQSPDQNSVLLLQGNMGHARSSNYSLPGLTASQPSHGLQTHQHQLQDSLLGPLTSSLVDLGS
#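 AlphaScreen luminescence read after one hour at 37 °C in darkness. Pin-transferred compounds met GST-Six1 and His-Eya2 protein (5X stock 250 nM/500 nM) plus glutathione donor and Ni-chelate acceptor beads (5X, 50 ug/mL).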
# An asterisk follows results filed as active; ? = inconclusive; . = no result given; [ ] = another dose, or the depositor's remark. Compounds were not picked by outcome; any-hit rate near 3.7%.
SMILES,Sfp inh,D2 agonist,PINK1 modulator,CtBP-E1A inh,D2 potentiator,TRPV1 PAM,Six1-Eya2 blk
COc1ccc(-n2c(=O)c3ccccc3n(CC(=O)Nc3cc(C)on3)c2=O)cc1OC,45µM*,-1.5,-0.4%,0,-4,3,5
COc1ccc(C(=O)N2CCC(N3CCN(c4ccccc4)CC3)CC2)cc1OC,?,6.0,-1.5%,-7,-21,-5,1
CCOc1ccc(S(=O)(=O)N2CCC(C(=O)NCc3ccccn3)CC2)cc1,11%,-3.4,2.0%,-2,0,0,3
CCOC(=O)CN1NC2(CCC(C)CC2)NC1=S (stereo not drawn),35µM*,-0.8,0.1%,1,9,6,4
CCCC(=O)N1CCc2cc(-c3nc(N)sc3C)ccc21,-28%,-1.0,0.0%,-5,-9,-4,-2
Cc1cccc(-n2c(O)c(C=NCc3ccccn3)c3ccccc3c2=O)c1,-6%,1.7,-0.8%,-23,-4,-30,-11
COCCSc1nnc(NC(=O)Cc2cccs2)s1,-17%,-2.5,0.1%[38.3 µM],10,-10,16,-2
Cc1ccc(C(=O)NC2CCN(Cc3ccccc3)CC2)cc1S(=O)(=O)N1CCOCC1,.,-2.2,4.3%,-3,-38,2,-22
COc1ccc([N+](=O)[O-])cc1NS(=O)(=O)c1cc(C(=O)NCc2cccnc2)ccc1Cl,.,-7.3,-0.3%,.,-11,15,-4
O=C(CCc1ccccc1Cl)Nc1ccc(S(=O)(=O)Nc2nccs2)cc1,.,-1.0,-1.5%,-10,25,?,-9
Cc1c(Cl)cccc1NC(=S)N(C)CCC#N,-14%,-0.2,0.1%,-1,1,?,-2
CC(=O)Nc1ccc2nc(NC(=O)COc3ccccc3C)sc2c1,2%,-1.6,7.7%,-6,-7,4,-10
CCC(C(=O)O)n1c(C(F)(F)F)nc2ccccc21 (stereo not drawn),19%,-1.7,-2.4%,8,19,-16,0
CCOC(=O)C1CCCN(C(=O)c2cccc3ccccc23)CC1 (stereo not drawn),.,-2.4,-0.2%,-6,-3,.,5
COc1ccc(/C=C(/NC(=O)c2ccc(OC)c(OC)c2)C(=O)NCCCn2ccnc2)cc1,2%,-2.8,1.1%,-11,-2,-1,-2
COCCn1c(CCC(=O)O)ccc1-c1cccs1,-10%,-3.9,-1.9%,-12,2,0,-15
Cc1cccc(-c2ncc(CN3CCN(C4CCCC4)C(CCO)C3)cn2)c1 (stereo not drawn),-5%,0.2,-0.6%,1,-8,-7,-2
CC(C)c1ccc(Nc2nnc(SCC(=O)Nc3ncc(S(=O)(=O)c4ccc([N+](=O)[O-])cc4)s3)s2)cc1,2%,-1.3,?,.,3,-5,-2
Cc1ccc(C)c(NC(=O)c2ccc3c(c2)N(Cc2ccc(F)cc2)C(=O)CS3=O)c1 (stereo not drawn),?,-0.7,-0.5%,2,-10,1,-6
COc1cc(-c2cnc3c(NC=O)cc(-c4ccccc4Cl)cn23)cc(OC)c1OC,.,-4.9,12%,-20,-6,.,-11
CCc1ccc(NC(=O)c2ccnc(C(C)(C)C)c2)cc1,15%,-3.1,0.3%[38.3 µM],4,-4,?,6
CCOC(=O)C1=C(C)OC(N)=C(C#N)C1c1cc(OC)c2c(c1)OCO2 (stereo not drawn),1%,2.8,-2.2%,-4,-1,20,-6
CN(CC(=O)Nc1ccccc1Br)C(=O)CNC(=O)Cc1cccc2ccccc12,4%,-4.4,-0.6%,-8,7,-11,0
Cc1ccc(Cl)cc1NC(=O)Nc1cccs1,50µM*,-3.0,3.4%,3,-25,-24,-4
COC(=O)Nc1ccc(S(=O)(=O)N2CCN(CCN3C(=O)C4C5C=CC(C5)C4C3=O)CC2)cc1 (stereo not drawn),14%,0.9,-1.7%,5,-4,-5,-2
SMILES,Sfp inh,D2 agonist,PINK1 modulator,CtBP-E1A inh,D2 potentiator,TRPV1 PAM,Six1-Eya2 blk
COc1ccc(C2=NOC(C)(c3nnc(-c4ccc(F)cc4)o3)C2)cc1 (stereo not drawn),5%,-0.3,1.6%,.,-10,17,0
NC(=O)C1(N2CCCCC2)CCN(C2CC(=O)NC2=O)CC1 (stereo not drawn),16%,0.2,-1.0%,0,7,-8,-2
Cc1ccc(NC(=S)Nc2nc(CC(=O)Nc3ccccc3)cs2)cc1,?,-3.3,-2.0%[38.3 µM],-1,-19,.,-4
N#Cc1nc(-c2ccccc2Cl)oc1N1CCOCC1,-16%,1.8,-7.0%[38.3 µM],-1,12,-24,-15
COc1ccc(/C=C(\NC(=O)c2cccs2)C(=O)Nc2ccccc2C)cc1OC,-4%,-4.7,-0.8%,-2,3,9,-5
CC1CC2=C(NC(=S)NC2c2ccccc2F)/C(=C/c2ccccc2F)C1 (stereo not drawn),?,-3.2,2.9%,-25,-9,5,-11
COc1ccc(/C=N/c2nc3ccccc3n2C)cc1OC,12%,0.8,.,6,2,5,2
N/C(=N\c1nc2c(c(=O)[nH]1)CCCC2)Nc1ccccc1Sc1ccccc1,10%,0.3,14%[38.3 µM],4,5,15,0
O=C1CCC(C(=O)Nc2cccc(S(=O)(=O)Nc3ccccc3F)c2)=NN1,.,-2.5,-2.4%,-6,-2,.,4
CCOc1ccc(OCC(=O)Nc2c3c(nn2C(C)(C)C)CS(=O)(=O)C3)cc1,1%,1.8,-1.5%,5,?,3,2
O=C(NC1CCCCC1)c1ccc(N2CCOCC2)c([N+](=O)[O-])c1,6%,-2.9,3.5%,7,-3,-15,-9
CSc1nc(O)c(C(c2ccc(O)cc2)c2c(O)nc(SC)[nH]c2=O)c(=O)[nH]1,50µM*,-4.2,0.0%,-1,3,15,-3
CN(C)CCNC(=O)c1sc2cccc(F)c2c1Cl,11%,-0.5,-0.1%,-1,-18,9,-3
COC(=O)C1CCCN1C(C(=O)NC1CCCCC1)c1ccc(Cl)cc1 (stereo not drawn),12%,-4.2,1.1%,-2,-7,2,5
Cc1ccc(C)c2c(SC(C)C(=O)NCc3ccco3)nc(-c3ccccc3)nc12 (stereo not drawn),14%,-3.1,0.5%,6,-19,8,7
O=C(O)c1sccc1Oc1ccc(NS(=O)(=O)c2cccc(F)c2)cc1,8%,-2.5,1.9%,-7,-2,-10,2
O=C(N/N=C/c1ccco1)c1cnccn1,-11%,3.0,5.1%[38.3 µM],-4,-1,7,-2
CC1CCN(c2ccc3nnc(CCC(=O)NCCCOC(C)C)n3n2)CC1,2%,10,-0.6%,10,-4,6,9
Cc1ccc(C)c(NC(=O)CCC(=O)N/N=C2/CC(=O)CC(C)(C)C2)c1,11%,0.4,-2.7%,0,1,1,-1
COC(=O)c1cc(S(=O)(=O)NCCc2ccc(SC)cc2)c[nH]1,13%,1.9,0.4%,0,1,5,-1
N/C(=N\c1nc2c(c(=O)[nH]1)CCC2)Nc1ccccc1,7%,2.5,2.2%,5,-1,?,-1
NS(=O)(=O)c1cccnc1Nc1ccc(Cl)c(Cl)c1,13%,0.7,1.7%,2,3,-6,4
COc1ccc(C(=O)NCC(=O)OCC(=O)c2ccccc2Br)cc1OC,.,-5.1,2.7%,4,-19,.,0
Cc1cc(=O)oc2cc(OCC(=O)N3CCCC(C)C3)ccc12 (stereo not drawn),5%,-4.3,-1.3%,7,-6,-11,-7
CC(=O)c1cccc(NC(=O)N2CCC(C(=O)c3ccc(F)cc3)CC2)c1,6%,-2.3,2.2%,-1,-9,-5,0
SMILES,Sfp inh,D2 agonist,PINK1 modulator,CtBP-E1A inh,D2 potentiator,TRPV1 PAM,Six1-Eya2 blk
COc1ccc(C(=O)CCS(=O)(=O)c2ccc(C)cc2)cc1OC,4%,-0.3,-0.2%,-8,-9,3,-2
C[N+]1(CC(=O)OCCCc2ccccc2)CCOCC1,-1%,-1.0,-1.1%,-1,1,-4,6
CN(C)c1ccc(C=NNc2nc3c([nH]2)c(=O)n(C)c(=O)n3C)cc1,.,5.9,2.7%,-4,3,.,1
COc1ccc(-c2nnnn2-c2ccccc2OC)cc1,-3%,-1.5,14%[38.3 µM],12,-9,-1,1
O=C(O)c1cccc(NC(=O)c2cccc(S(=O)(=O)N3CCc4ccccc43)c2)c1,-4%,-2.1,-0.2%,-14,0,7,-3
Cc1ccc(N=Cc2c(O)n(-c3nccs3)c(=O)c3ccccc23)cc1,?,-7.7,2.9%,4,-24,-7,-4
CCN1CCN(C(=O)CCc2nnc3ccc(N4CCC5(CC4)OCCO5)nn23)CC1,21%,-5.0,-1.7%,.,-6,11,5
CCc1ccc(NC(=O)c2ccc(Cn3cc([N+](=O)[O-])cn3)cc2)cc1,13%,-1.9,?,2,-41,-6,4
O=C(COc1ccc(-c2nnco2)cc1)NC1CCS(=O)(=O)C1 (stereo not drawn),.,1.4,0.7%,-17,-3,.,-9
Cc1cccc2cc(C#N)c(NCCNS(=O)(=O)c3ccc4c(c3)OCCO4)nc12,-2%,-0.2,-2.1%[38.3 µM],-5,-2,8,7
C/C(=N\NC(=O)c1nnn(-c2nonc2N)c1CN1CCc2ccccc21)c1ccccc1O,12%,0.0,2.4%,.,-1,?,23
Cc1cnc(C(=O)OCC(=O)Nc2ccc(Cl)cc2)cn1,8%,-0.3,-3.2%,-13,28,3,-1
c1cc2ccc3ccc(CN4CCOCC4)c4ccc(c1)c2c34,-13%,-1.4,.,13,-30,-9,-1

# Record cards (already shown). Order of screens: Sfp inh, D2 agonist, PINK1 modulator, CtBP-E1A inh, D2 potentiator, TRPV1 PAM, Six1-Eya2 blk
# C[N+]1(CC(=O)OCCCc2ccccc2)CCOCC1 in the list: -1%, -1.0, -1.1%, -1, 1, -4, 6
# Cc1cccc2cc(C#N)c(NCCNS(=O)(=O)c3ccc4c(c3)OCCO4)nc12 in the list: -2%, -0.2, -2.1%[38.3 µM], -5, -2, 8, 7
# C/C(=N\NC(=O)c1nnn(-c2nonc2N)c1CN1CCc2ccccc21)c1ccccc1O in the list: 12%, 0.0, 2.4%, ., -1, ?, 23
# CCN1CCN(C(=O)CCc2nnc3ccc(N4CCC5(CC4)OCCO5)nn23)CC1 in the list: 21%, -5.0, -1.7%, ., -6, 11, 5
# COc1ccc(-c2nnnn2-c2ccccc2OC)cc1 in the list: -3%, -1.5, 14%[38.3 µM], 12, -9, -1, 1

# Screens (PubChem BioAssay)
